Screening results: PubChem, Center for Chemical Genomics, University of Michigan
HIV TAR-Tat = HIV-1 TAR-Tat binding disruption. HIV-1 TAR RNA, Tat peptide displacement FRET; active compounds read high. z-score (concentration not given with the values). hit rate 0.6% among 100,000. AID 1259389;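 note: score is relative to mean and SD of negative controls; some compounds called inactive have numbers as strong as hits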
CDC25B-CDK2 inh = human CDC25B-CDK2/CyclinA binding inhibition | AID 1259370 | HTRF CDC25B-CDK2/CyclinA binding, anti-His/anti-Flag; active compounds read high | z-score (test concentration not listed) | hit rate 0.72% among 94,000;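 note: score is relative to mean and SD of negative controls; strong numbers were not always called active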
The depositor's hits bear a star; . = not tested or not shown.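 Rule for the calls: active = z-score from 3 up in half or more of its runs; inactive = the rest.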

Results follow in this order: HIV TAR-Tat, CDC25B-CDK2 inh
#1 COC(=O)c1cc(S(=O)(=O)N2CCCCC2C)c[nH]1 (stereo not drawn)
  -0.08, .
#2 Cc1cc(C)c2c(C)nn(-c3ccc(Br)cc3)c2n1
  0.88, -1.2
#3 CC(C)(C)c1nnc2sc(-c3cccnc3)nn12
  1.9, -1.2
#4 CC1=C(c2ccc(C)cc2)S(=O)(=O)NC1=NC(C)C
  -1.2, -2.5
#5 N#C/C(=C\c1ccc(C(F)(F)F)cc1)c1csc2ccccc12
  ., -0.97
#6 Cc1ccc(-n2nnc3c(Nc4ccc(Cl)cc4)ncnc32)cc1
  1.4, -1.3
#7 COc1cc(S(=O)(=O)n2ccnc2C)c(OC)cc1Cl
  0.82, -0.19
#8 COc1ccc(OC)c(-n2cc3c(c2-c2ccccc2Br)c(=O)n(C)c(=O)n3C)c1
  0.58, -2.1
#9 COc1ccc(-n2c(SCc3nc(-c4ccc(Cl)cc4)no3)nnc2-c2ccncc2)cc1
  1.6, 1.5
#10 Cc1ccccc1-c1nn2c(C3COc4ccccc4O3)nnc2s1 (stereo not drawn)
  1.9, -1.3
#11 Cc1cc(C)n(Cc2c(C(=O)N3CCOCC3)noc2C)n1
  1.4, .
#12 CCOC(=O)COc1ccccc1CS(=O)(=O)c1ccc(Cl)cc1
  ., -0.66
#13 Cc1cccc(OC(C)c2nc(-c3ccc(Br)cc3)no2)c1 (stereo not drawn)
  -0.72, -0.58
#14 c1csc(C2=NC(c3ccncc3)=Nc3ccccc3N2)c1
  -0.71, -2.7
#15 O=c1c2cccnc2nc(SCc2cc(=O)n3cc(Cl)ccc3n2)n1Cc1ccccc1
  0.61, -0.07
#16 Cc1cc(N2CCN(c3cccc(C)c3C)CC2)n2cnnc2n1
  0.66, -1.1
#17 O=C(c1ccc2nc(N3CCOCC3)sc2c1)N1CCN(c2ccccn2)CC1
  -0.64, -1.1
#18 O=C(CSc1nnc(Cn2c(=O)sc3ccccc32)n1-c1ccccc1)N1CCCC1
  ., 0.14
#19 CCOC(=O)C1CCCN(C(=O)C2CCN(c3nnc(-n4c(C)ccc4C)s3)CC2)C1 (stereo not drawn)
  1.5, -0.93
#20 O=S(=O)(c1ccc2nc(NCc3cccnc3)cnc2c1)N1CCCCC1
  0.17, -0.56

A second format for part of the listing above.
18: O=C(CSc1nnc(Cn2c(=O)sc3ccccc32)n1-c1ccccc1)N1CCCC1
19: CCOC(=O)C1CCCN(C(=O)C2CCN(c3nnc(-n4c(C)ccc4C)s3)CC2)C1 (stereo not drawn)
20: O=S(=O)(c1ccc2nc(NCc3cccnc3)cnc2c1)N1CCCCC1
assay / compound,18,19,20
HIV TAR-Tat,.,1.5,0.17
CDC25B-CDK2 inh,0.14,-0.93,-0.56

The list continues:
Results follow in this order: HIV TAR-Tat, CDC25B-CDK2 inh
#21 CC(C)CC(C(=O)Nc1ccccc1)N1Cc2ccccc2C1=O (stereo not drawn)
  0.6, .
#22 N#CCc1nc2cccnc2n1C1CC1
  ., -2.2
#23 Cn1ccnc1SCC(=O)Nc1cccc2nsnc12
  -2, 2.5
#24 CC1CSc2ccc(S(=O)(=O)NCCN3CCOCC3)cc2NC1=O (stereo not drawn)
  1.8, .
#25 CCOC(=O)c1c(NC(=O)c2nn(-c3cccc(Cl)c3)ccc2=O)sc2c1CCCC2
  -0.12, -0.72
#26 O=C(CCN1C(=O)c2ccccc2C1=O)N1CCCCCC1
  ., -0.65
#27 COc1ccc(NS(=O)(=O)c2ccc3c(c2)NC(=O)CC(=O)N3)cc1OC
  -0.36, -0.94
#28 COc1ccccc1-n1c(SCC(=O)Nc2nc3ccccc3s2)nc2c(c1=O)SCC2
  0.58, -2
#29 Nc1c(-c2ccccc2)cnc2c(-c3ccccc3)c(COc3ccccc3)nn12
  -0.58, -1.9
#30 Cc1c2cnn(CC(=O)O)c(=O)c2c(C)n1Cc1ccccc1F
  3.5, -1

Whole records as entered above. Order of values: HIV TAR-Tat | CDC25B-CDK2 inh
Record of CC(C)CC(C(=O)Nc1ccccc1)N1Cc2ccccc2C1=O (stereo not drawn) → 0.6 | .
Record of CCOC(=O)c1c(NC(=O)c2nn(-c3cccc(Cl)c3)ccc2=O)sc2c1CCCC2 → -0.12 | -0.72

Further records:
Results follow in this order: HIV TAR-Tat, CDC25B-CDK2 inh
#31 CCC(C)Nc1oc(-c2ccc(S(=O)(=O)N3CCc4ccccc4C3)cc2)nc1C#N (stereo not drawn)
  -0.15, -0.72
#32 COc1ccc(NC(=O)C2=Cc3cc(Br)ccc3OC=C2)c(OC)c1
  -0.52, -1.5
#33 CC(=O)C1=CN(c2ccccc2)C=C(C(C)=O)C1c1ccccc1
  ., -1.1
#34 Cc1ccc(C(c2sc3nc(C)nn3c2O)N2CCN(c3ccccc3)CC2)cc1 (stereo not drawn)
  ., -0.55
#35 CCOc1ccc(OCC)c(NS(=O)(=O)c2cc(-c3cc(C)no3)ccc2OC)c1
  -0.07, .
#36 O=C(C1CCNCC1)N1CCCCC1
  -0.77, -1.9
#37 c1ccc(OCCCn2c(C3CCCO3)nc3ccccc32)cc1 (stereo not drawn)
  2.3, -1.6
#38 CCN(CC)CCNC(=O)c1cnc2sccn2c1=O
  -0.04, .
#39 CCc1nnc(SCC(=O)NC2CCCCC2)nc1CC
  0.48, .
#40 Cc1nc2sc(C(c3ccc(F)cc3)N3CCc4ccccc4C3)c(O)n2n1 (stereo not drawn)
  ., -0.98
#41 COc1ccc(Nc2ncnc3c2nc2n3CCCC2)cc1OC
  0.83, .
#42 Cc1ccccc1N1OC2C(=O)N(c3ccc(F)cc3)C(=O)C2C1c1ccccn1 (stereo not drawn)
  -0.06, -0.9
#43 CC1CCN(C(=O)C2=CC(c3ccc(F)cc3)=NS(=O)(=O)N2C)C2CCCCC12 (stereo not drawn)
  1.7, 0.62
#44 CCOC(=O)c1c(C)c(C(=O)NC2CCCCC2C)c(C)n1C (stereo not drawn)
  ., -1.4
#45 Cn1ncc2c(Nc3ccccc3)nc(N3CCN(c4ccc(F)cc4)CC3)nc21
  0.21, .
#46 Cc1nn(CC(=O)N2CC(C)CC(C)C2)c(=O)c2c1sc1ccccc12 (stereo not drawn)
  1.7, -2.7
#47 Cc1c(C(=O)N2CCN(C)CC2)oc2ccc3c(c12)C(=O)CC1(CCCCC1)O3
  0.21, -2.2
#48 O=C(CSc1ncccc1C(=O)O)c1cc2ccccc2o1
  ., -0.55
#49 CCOC(=O)N1CCN(C(=O)c2oc3ccc(S(=O)(=O)N(CC)CC)cc3c2C)CC1
  0.89, -0.95
#50 O=C(c1cc(-c2ccco2)nc2ccccc12)N1CCN(c2ccc(=O)n(-c3ccccc3)n2)CC1
  -1.1, .

Among those listed so far, two have a COOH group:
Results follow in this order: HIV TAR-Tat, CDC25B-CDK2 inh
#30 Cc1c2cnn(CC(=O)O)c(=O)c2c(C)n1Cc1ccccc1F
  3.5, -1
#48 O=C(CSc1ncccc1C(=O)O)c1cc2ccccc2o1
  ., -0.55

More structures:
Results follow in this order: HIV TAR-Tat, CDC25B-CDK2 inh
#51 CN(C(=O)c1cc2c(n(-c3ccccc3)c1=O)CCCC2=O)c1ccc(O)cc1
  0.57, -0.36
#52 COC(=O)c1ccc2snnc2c1
  ., -0.98
#53 CC1=C(C(=O)OC(C)C)C(c2cccc(O)c2)C2=C(CCCC2=O)N1 (stereo not drawn)
  1.4, -2
#54 O=C(Cn1nc(C(F)F)cc1C1CC1)N1CCCC1
  -2.5, -1.4
#55 COc1ccc2[nH]c(C(=O)Nc3cccc(C)n3)cc2c1
  ., -1.5
#56 COc1ccc(Cc2nc3c4c(C)c(C)n(-c5ccccc5Br)c4ncn3n2)cc1OC
  -0.56, 0.55
#57 CNC(=O)c1c(NC(=O)c2cc(OC)cc(OC)c2)sc2c1CCC2
  0.19, .
#58 O=C(O)C(C(=O)OCc1ccccc1)c1ccccc1 (stereo not drawn)
  ., -1.1
#59 CN(CCCNC(=O)C1CCN(c2nnc(N3CCCC3=O)s2)CC1)C1CCCCC1
  3.2, -0.44
#60 Cc1cc2nc(CSc3nnc(-c4ccccc4C)o3)cc(=O)n2o1
  1.4, -1
#61 COc1ccc(OC)c(NC(=O)CSc2nc3ncccc3o2)c1
  -0.66, .
#62 CCn1c(SCc2nc(-c3ccc(Cl)cc3)no2)nnc1-c1ccco1
  -0.17, -3.1
#63 O=C(CCC(=O)N1Cc2ccccc2Oc2ncccc21)NCCc1cccs1
  0.76, .
#64 O=C(Nc1ccccc1F)c1cc2ccccc2c(=O)s1
  0.24, 0.25
#65 CCSc1ncc(Cl)c(C(=O)Nc2ccccc2Br)n1
  2.2, -2.5
#66 COc1ccc(C(=O)CC2(O)C(=O)Nc3c(C)cccc32)cc1OC (stereo not drawn)
  -0.04, .
#67 COc1ccc(C2CC(c3cccc(Cl)c3)n3nc(N)nc3N2)cc1 (stereo not drawn)
  0.06, -0.34
#68 O=C(Nc1ccc(F)c(Cl)c1)N1CCCC1c1cccs1 (stereo not drawn)
  1.2, -2.2
#69 Cn1c(=O)c2cn3c(c2n(C)c1=O)C(c1coc2ccccc2c1=O)Nc1ccccc1-3 (stereo not drawn)
  -2.4, 4.5
#70 Cc1ccc(S(=O)(=O)c2nnn(-c3ccc(C)c(F)c3)c2C)cc1
  0.46, 0.59

Taken from above.
cpd 14 | HIV TAR-Tat = -0.71
cpd 36 | HIV TAR-Tat = -0.77
cpd 6 | HIV TAR-Tat = 1.4
cpd 47 | CDC25B-CDK2 inh = -2.2

(listing goes on)
Results follow in this order: HIV TAR-Tat, CDC25B-CDK2 inh
#71 COc1cc2nc(SCC(=O)c3ccc(Br)cc3)n3nc(C)nc3c2cc1OC
  ., -0.56
#72 CC(=O)N(/N=C/c1ccc(F)cc1)C1=NN(C(C)=O)C(c2ccc(F)cc2)S1 (stereo not drawn)
  ., -1.7
#73 CCC(C)NC(=O)C1(C)CCC(=O)N1CCc1ccc(Cl)cc1 (stereo not drawn)
  ., -1.1
#74 COc1ccc(-c2nc(CCNS(=O)(=O)c3ccc4c(c3)CCCC4)cs2)cc1OC
  0.26, 0.5
#75 Cc1ccc2nc(N3CCN(c4ccccc4F)CC3)c3nnnn3c2c1
  1.4, .
#76 COc1ccc(NC(=O)CC2C(=O)N(c3ccc(OC)cc3)C(=O)N2CCC2=CCCCC2)cc1 (stereo not drawn)
  ., -1.7
#77 CCOC(=O)CCc1c(C)nc2nc(CO)[nH]n2c1=O
  -0.37, 0.99
#78 O=c1c(NCc2cccs2)nccn1-c1ccc(F)c(Cl)c1
  -0.71, .
#79 CC1Cc2ccccc2N1S(=O)(=O)c1ccc(-c2ccc(=O)[nH]n2)s1 (stereo not drawn)
  0.27, .
#80 Cc1nn(C)c2c1c(C(F)(F)F)cc(=O)n2Cc1cccc(Br)c1
  -0.66, .
#81 COc1ccc(Nc2nc(N3CCCC3)nc3c2cnn3C)cc1
  1.3, .
#82 COc1ccc(NC(=O)CSc2nc(N)c(C(=O)Nc3ccc(N(C)C)cc3)s2)cc1
  1.3, .
#83 NC(=O)CSc1nc(-c2ccccc2)nc2c1Cc1c(ccc3ccccc13)O2
  3.1, -1.3
#84 CC(c1ccccc1)n1cc2c(c1-c1ccccc1Br)c(=O)n(C)c(=O)n2C (stereo not drawn)
  1.8, 2.9
#85 Cc1ccc(S(=O)(=O)NC(=O)NCC2CCN(S(=O)(=O)c3ccccc3)CC2)cc1
  ., -2.8
#86 O=c1c(Nc2ccccc2F)c(-c2ccc3c(c2)CCCC3)c1=O
  1.1, .
#87 O=C(C(Cc1ccccc1)N1Cc2ccccc2C1=O)N1CC=C(c2ccccc2)CC1 (stereo not drawn)
  -0.52, .
#88 CC(=O)N1CCc2cc(S(=O)(=O)NC(C(=O)Nc3nc4ccc(C)cc4s3)C(C)C)ccc21 (stereo not drawn)
  ., -1.6
#89 Cc1ccc(C)c(NC(=O)N2c3ccccc3NC3=C(C(=O)CC(C)(C)C3)C2c2ccco2)c1 (stereo not drawn)
  -1.2, .
#90 Cc1cc(-c2ccc(C(C)C)c(S(=O)(=O)NCc3cccs3)c2)on1
  1.4, .
#91 COc1ccc(-c2noc(C3CCCN(S(=O)(=O)c4ccc5c(c4)CCCC5)C3)n2)cc1 (stereo not drawn)
  1.8, .
#92 O=C1/C(=C/c2ccccc2Cl)CS/C1=C/c1ccccc1Cl
  ., -1.6
#93 CCN(CC)S(=O)(=O)c1ccc2c(c1)N(C(C)=O)CCCS2
  -1.2, .
#94 COc1ccc(S(=O)(=O)c2cnc3ccccc3c2N2CCOCC2)cc1
  2, -1
#95 O=[N+]([O-])c1ccc(N2CCSCC2)cc1Oc1nc2c(Cl)cc(Cl)cc2s1
  ., -0.02
#96 O=C(CSc1n[nH]c(-c2ccc(F)cc2)n1)Nc1nccs1
  1.5, .
#97 N#CC(C#N)=C1NC2=C(Cc3ccccc32)C(c2cccs2)=C1C#N
  ., -0.07
#98 CCOC(=O)c1ccc(N2Cc3ccncc3C2=O)cc1
  0.54, -1.1
#99 COc1ccc(C2Nc3ccc(C)cc3-c3cc(C)nn32)cc1O (stereo not drawn)
  0.71, -2.4
#100 O=C1O[C@@H](CO)[C@H](O)[C@@H](O)[C@@H]1O
  0.02, .
#101 CCOc1ccc2ncc(S(=O)(=O)c3ccc(Cl)cc3)c(N(CC)CC)c2c1
  -1.4, 0.79
#102 CCn1c(CN(Cc2ccccc2)Cc2ccccc2)nc2c1c(=O)[nH]c(=O)n2C
  0.26, -1.2
#103 CCc1nn(CC(=O)N2CCc3ccccc32)c(=O)c2cccn12
  1.6, -0.06
#104 Cn1c2ccccc2c2cnn(CC(=O)Nc3ccc(F)cc3)c(=O)c21
  -0.27, -0.52
#105 c1ccc(CN2CCC3(CC2)Nc2ccccc2S3)cc1
  ., 0.19
#106 CCn1c(C(=O)NC2CCCC2)cc2oc3ccccc3c21
  2.4, -0.37
#107 CCOC(=O)CSc1ccc(S(N)(=O)=O)cc1[N+](=O)[O-]
  ., -0.53
#108 O=C1Cc2cc(S(=O)(=O)Nc3cccc(F)c3)cc3c2N1CCC3
  0.92, .
#109 O=c1[nH]nc(Sc2ccc(C(F)(F)F)cn2)n1C1CCCCC1
  ., -0.61
#110 CCn1c2ccccc2c2nnc(NCCCN3CCN(c4ccc(F)cc4)CC3)nc21
  1.4, -2
